UCH37 inh: blocks the human deubiquitinase UCH37 | 0.33% of 330,000 active | purified proteasome/UCH37, Ub-AMC cleavage fluorescence | Q9Y5K5 | inhibition, % (concentration not given with the values) | AID 588478;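 active = mean of two replicates above 20%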;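 note: 0% = compound-free wells with enzyme and 100% = wells lacking proteasome; stock transfer was 100 nL into about 20 µL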
Target sequence (Q9Y5K5 whole entry, looked up): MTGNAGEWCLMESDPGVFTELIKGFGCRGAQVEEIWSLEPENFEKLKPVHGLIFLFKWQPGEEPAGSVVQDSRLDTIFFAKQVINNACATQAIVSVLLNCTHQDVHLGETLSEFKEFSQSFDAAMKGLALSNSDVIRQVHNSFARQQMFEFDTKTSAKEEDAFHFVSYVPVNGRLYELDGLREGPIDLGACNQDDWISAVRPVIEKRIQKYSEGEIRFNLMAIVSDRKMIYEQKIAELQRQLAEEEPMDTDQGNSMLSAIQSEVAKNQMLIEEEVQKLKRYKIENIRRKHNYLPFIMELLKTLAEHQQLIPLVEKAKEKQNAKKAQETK
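assay system = human UCH37 enzyme supplied as purified proteasome complex | amount = proteasome at 0.15 nM in the dispensed enzyme solution | schedule = 30 min compound-proteasome preincubation then 25 min substrate reaction, room temperature | measured by = fluorescence, ex 355 nm, em 460 nm | benchmarks = no-proteasome wells (full inhibition) and compound-free wells (no inhibition)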
Vif A3G: HIV-1 Vif–A3G interaction blockers – biochemical, TR-FRET, GST-Vif 1-94, biotin-A3G peptide, dose response retest, primary screen (AID 1117319) | TR-FRET GST-Vif / biotin-A3G peptide binding; higher % means a stronger effect; test concentration not given here; strong numbers were not always called active | one-dose inhibition, %; IC50 in µM for titrated hits | 0.57% of 260,000 active;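 active = above the screen mean plus three standard deviations and confirmed in dose response; inconclusive = results disagree or hit not tested in dose response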;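 note: Vif residues 1-94 fused to GST binding biotinylated APOBEC3G peptide 110-148; 0% = full assay without inhibitor and 100% = GST in place of GST-Vif; retest series ran down from 100 µM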
Ecoli growth: E. coli growth inhibition; Escherichia coli growth, OD600, 23 h; stronger effect = lower value; OD600 absorbance (concentration not given with the values); AID 1053175; 0.21% of 330,000 active;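 active = OD600 absorbance below the run mean of sample wells minus 3.6 SD, in any replicate, cut at about 0.56 in these data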;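 note: stock transfer was 300 nL into about 60 µL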
LANA-H2A inh: blocks KSHV LANA binding to histone H2A/H2B | 0.6% of 320,000 active | cell-free LANA-H2A/H2B peptide, fluorescence polarization | inhibition, % (concentration not given with the values); in the data active = inhibition mostly above about 10%, no sharp cut-off; inactive = mostly below about 6.7%;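 note: stock transfer was 7.5 nL into about 10 µL; 0% = median of vehicle wells and 100% = median of positive control wells; one replicate is shown; the record names a cut of 25% in any replicate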
Bfl-1 A1 inh: inhibitors of the anti-apoptotic protein A1, read as caspase activation. MEF A1-2A-BIM cells, Caspase-Glo 3/7 luminescence, 3 h; percent of clofoctol response, vehicle zero. caspase activation, % (concentration not given with the values). 0.066% of 330,000 active;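 active = over half of replicate activation scores above 10%, or exactly half above 10 with the replicate mean above 10; inconclusive = replicate mean below 10 yet half the replicates above 10; inactive = over half of replicates below 10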;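 note: wells of about 30 µL received 50 nL stock; many hits fall short of the cut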
HNF4A DNA FP: change in binding of human HNF4 alpha to DNA | P41235 | HNF4a-FITC DNA binding, fluorescence polarization, 1 h | activity change, % at 10 µM | 0.3% of 360,000 active | AID 1224865; in the data active = activity change above about 30%, passing the limit was not always enough;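 note: controls were the assay level and a saturating level of protein; the project sought stronger binding though the title names inhibitors; some compounds called inactive have numbers as strong as hits; positive values seem to mean higher polarization but the record does not say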
Target sequence (P41235 whole entry, looked up): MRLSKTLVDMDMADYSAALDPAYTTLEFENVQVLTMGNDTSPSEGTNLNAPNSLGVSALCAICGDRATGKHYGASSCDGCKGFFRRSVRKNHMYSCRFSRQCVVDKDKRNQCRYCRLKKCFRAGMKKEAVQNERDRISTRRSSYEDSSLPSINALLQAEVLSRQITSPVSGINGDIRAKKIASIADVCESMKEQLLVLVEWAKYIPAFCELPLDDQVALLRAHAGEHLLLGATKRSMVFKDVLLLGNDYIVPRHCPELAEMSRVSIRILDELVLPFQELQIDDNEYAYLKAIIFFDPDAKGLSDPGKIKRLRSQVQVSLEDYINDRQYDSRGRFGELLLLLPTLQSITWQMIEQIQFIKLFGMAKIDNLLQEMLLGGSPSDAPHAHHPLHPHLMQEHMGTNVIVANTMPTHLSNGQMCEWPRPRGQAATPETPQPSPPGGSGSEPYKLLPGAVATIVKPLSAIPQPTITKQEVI
B2AR ag: agonists of human beta-2 adrenergic receptor inducing internalization | AID 504454 | response, % (no concentration beside the values) | Am2.2-beta2AR cells, FAP receptor internalization, flow cytometry; reference of the scale not given here | 0.43% of 340,000 active | P07550;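 active = response above a set limit, near 3 SD of response in nonfluorescent compounds, cut at about 42% in these data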;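 note: stock transfer was 100 nL into about 11 µL; a reference agonist was the positive control; negative values mostly stem from fluorescent compounds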
Starred values were filed as active, the others as inactive; ? = inconclusive; . = no result given; & = joins results of further samples.

SMILES | UCH37 inh | Vif A3G | Ecoli growth | LANA-H2A inh | Bfl-1 A1 inh | HNF4A DNA FP | B2AR ag
c1ccc(-c2nnc(-c3ccccc3)o2)cc1 | 5.4 | -2% | 0.76 | . | -5.7 | -3.5 | -6
COc1ccc(OC)c(-n2c(SCC(=O)N3CCc4ccccc43)nc3c(c2=O)SCC3)c1 | 4.0 | 4% | 0.83 | -2.4 | . | -4.2 | -14
CCSc1nn2c(=O)c3ccccc3nc2s1 | 5.1 | -2% | 0.63 | -6.6 | -6.6 | -0.9 | 3
COc1cc(NC(=O)COC(=O)CSc2cc(C)ccc2C)c(C)cc1[N+](=O)[O-] | 3.1 | . | 0.71 | -3.6 | 0.5 | 2.6 | 1
CCOc1ccc2[nH]c3c(c2c1)CNCC3 | 0.0 | . | 0.71 | 4.8 | -0.4 | 11 | 6
C=CCn1c(=NC(=O)c2sc3ccccc3c2Cl)sc2cc(S(N)(=O)=O)ccc21 | . | 15% | . | 0.4 | -0.1 | 2.7 | 7
CC(=O)Cn1c(CN2CCCCC2)nc2ccccc2c1=O | 1.0 | -5% | 0.66 | 1.3 | 0.7 | 2.1 | -3
N#Cc1ccc(C(=O)OCCCc2cc3ccccc3c(=O)o2)cc1 | 3.1 | . | 0.69 | -4.0 | 0.3 | 1.3 | 3
Cc1cccc(C)c1OCC(=O)N/N=C/c1cccnc1 | . | . | . | 5.2 | 0.0 | -2.7 | -7
O=C(N/N=C/C=C/c1ccccc1[N+](=O)[O-])c1ccncc1 | . | -1% | . | 4.5 | 0.3 | 2.8 | -5
O=Cc1ccc(-n2cc(C=O)c3ccccc32)cc1 | 3.9 | -4% | 0.69 | -2.8 | 0.1 | 0.2 | 3
CC1=CC(=O)Nc2cncnc2N1 | -2.7 | -8% | 0.69 | . | . | -1.1 | -5
CC1CCCN(CCOCCOc2ccccc2-c2ccccc2)C1 (stereo not drawn) | 0.4 | 6% | 0.67 | 0.7 | -0.1 | 1.9 | 23
CN1CCN(c2nc(-c3ccccc3)nc3c2oc2ccccc23)CC1 | 2.9 | -9% | 0.62 | 2.4 | 2.0 | -7.2 | -9
CC(C)c1ccc(/C=C2\SC(=O)N(CC(=O)NC3C=CS(=O)(=O)C3)C2=O)cc1 (stereo not drawn) | 5.4 | . | 0.73 | -0.8 | 0.2 | 1.3 | -1
Cc1nc2ccccc2n1C1CCN(CC(=O)Nc2ccccc2Br)CC1 | 2.5 | . | 0.67 | 0.0 | -0.5 | 5.3 | 3
Cc1c(C(=O)N2CCN(C(=O)c3ccccc3)CC2)oc2ccc(F)cc12 | 3.5 | . | 0.73 | . | . | -12 | -4
CCCCNc1ccc(S(N)(=O)=O)cc1[N+](=O)[O-] | 7.1 | 6% | 0.65 | 6.7 | -0.7 | . | .
S=C(Nc1cccc(Cl)c1Cl)NC1CCN(Cc2ccccc2)CC1 | 2.3 | . | 0.69 | 2.3 | 0.8 | 4.9 | -8
COc1ccc(C/C(O)=C(\C#N)c2nc3ccccc3[nH]2)cc1OC | . | 11% | . | -3.5 | 0.5 | -2.5 | -4
O=C(c1ccco1)N1CCN(C(=O)c2sccc2-c2ccccc2)CC1 | 0.1 | 5% | 0.74 | 4.0 | 0.2 | 3.2 | -2
COc1ccc(/C=C/C(=O)Nc2ccccc2C(F)(F)F)cc1 | -0.1 | 0% | 0.75 | 1.1 | -9.6 | 2.3 | 0
CCC(=O)NC1=C(Cl)C(=O)C(NC(=O)CC)=C(Cl)C1=O | . | 23µM* | . | . | . | -2.5 | 26
COc1ccc(C(=O)OCC(=O)c2cc(OC)ccc2OC)c(OC)c1 | -0.2 | 0% | 0.71 | -0.2 | -0.5 | 1.4 | 7
Nc1cc(=O)[nH]c(SCc2nnc(-c3ccccc3)o2)n1 | 4.1 | 11% | 0.7 | 4.6 | -0.8 | 3.5 | -1
Cc1nc(Cc2nnc(SC(C)C(=O)N3c4ccccc4NC(=O)C3(C)C)o2)cs1 (stereo not drawn) | -2.1 | 5% | 0.67 | 14 | -0.3 | 0.6 | -2
Cc1c(NS(=O)(=O)c2ccc(Cl)c(C(=O)OC(C)C(=O)N3CCOCC3)c2)c(=O)n(-c2ccccc2)n1C (stereo not drawn) | 3.8 | . | 0.74 | 1.6 | 0.0 | 0.6 | 10
O=C(Nc1cccnc1)c1ccc(S(=O)(=O)N2CCCCCC2)cc1 | -0.3 | 7% | 0.68 | 1.9 | 0.1 | 0.6 | 1
COc1cccc(CNC(=O)c2ccc(C)c(S(=O)(=O)N3CCOCC3)c2)c1 | 3.5 | 8% | 0.67 | -1.5 | -0.5 | 1.3 | 5
C/C(N)=C(/C#N)C(=O)COC(=O)c1cc(-c2ccccc2)nc2ccc(Br)cc12 | 5.4 | -33% | 0.73 | 3.5 | 0.6 | . | .
O=S(=O)(c1ccc(Cl)cc1)N1CCC(O)(c2cccnc2)CC1 | 0.0 | -1% | 0.68 | 4.6 | -0.7 | -3.0 | 0
COc1ccc(N2CCN(c3ccc(Cl)nn3)CC2)cc1 | 3.5 | -2% | 0.7 | -1.1 | -0.1 | 4.2 | -10
COc1ccc(C(=O)OCC(=O)N2CCOCC2)cc1S(=O)(=O)N1CCOCC1 | -3.5 | -1% | 0.67 | -0.1 | -0.3 | 5.3 | -4
CCOc1ccc(CN2CCCC(N3CCN(c4ccc(OC)cc4)CC3)C2)cc1 (stereo not drawn) | 0.7 | . | 0.68 | 1.7 | 0.7 | -1.4 | -3
N/C(=N\c1nc2c(c(=O)[nH]1)CCC2)Nc1ccccc1 | . | . | . | 0.8 | -0.2 | -2.8 | -4
CC(NC(=O)COC(=O)CCc1ccc(S(=O)(=O)N2CCOCC2)cc1)C1CC2CCC1C2 (stereo not drawn) | 4.2 | . | 0.71 | 4.3 | -0.7 | 3.9 | 1
COC(=O)c1[nH]c2cc(OC)c(OC)cc2c1NC(=O)c1cccc(OC)c1 | 0.4 | 4% | 0.72 | 4.3 | 0.2 | 3.7 | -1
CCOCc1cc(C2NC(=O)NC(C)=C2C(=O)OCC)ccc1OC (stereo not drawn) | -0.2 | 3% | 0.71 | -1.8 | -0.3 | -2.2 | -6
CCOc1ccc(CCNC(=O)COC(=O)COc2ccc(Cl)cc2)cc1OCC | 5.1 | 3% | 0.68 | -0.2 | 0.4 | 0.9 | 2
CC(=O)Nc1ccc(NC(=O)C2CCCCC2C(=O)O)cc1 (stereo not drawn) | 4.0 | -6% | 0.65&0.69 | -1.8 | 0.8 | -4.0 | 0

Reprinted at random: 2 compounds from above, in no set order.
SMILES | UCH37 inh | Vif A3G | Ecoli growth | LANA-H2A inh | Bfl-1 A1 inh | HNF4A DNA FP | B2AR ag
CCOc1ccc(CCNC(=O)COC(=O)COc2ccc(Cl)cc2)cc1OCC | 5.1 | 3% | 0.68 | -0.2 | 0.4 | 0.9 | 2
CN1CCN(c2nc(-c3ccccc3)nc3c2oc2ccccc23)CC1 | 2.9 | -9% | 0.62 | 2.4 | 2.0 | -7.2 | -9

(continued)
SMILES | UCH37 inh | Vif A3G | Ecoli growth | LANA-H2A inh | Bfl-1 A1 inh | HNF4A DNA FP | B2AR ag
Cc1nc(/C=[N+](\[O-])C(C)(C)/C=N/O)n(O)c1C | . | 3% | . | -5.4 | -0.3 | -0.9 | 2
Cc1ccc(C)c(S(=O)(=O)NC(CCC(N)=O)C(=O)O)c1 (stereo not drawn) | 1.5 | . | 0.75 | 2.1 | 0.2 | -6.7 | 4
O=C1NC(SCCCF)=N/C1=C/c1ccc(-n2cncn2)cc1 | -1.2 | -2% | 0.71 | 3.8 | 0.4 | 2.3 | 5
O=C(Oc1ccc(-c2nnco2)cc1)c1ccco1 | 5.3 | . | 0.64 | -0.2 | 0.6 | 1.8 | 3
Cc1ccc(OCC(O)CN2CCCC2)cc1 (stereo not drawn) | -2.0 | . | 0.64 | -1.1 | 0.3 | 2.3 | 0
CNCC(O)CN1CCN(c2ccccc2OC)CC1 (stereo not drawn) | 1.1 | ? | 0.66 | -0.9 | 0.0 | -0.7 | -1
CC(C)(C)c1ccc(C(=O)NCCC(=O)NCc2cccs2)cc1 | -0.1 | -7% | 0.71 | -0.9 | 0.8 | -2.0 | 4
Cc1nc(SCc2nc3ccccc3[nH]2)c2oc3cc([N+](=O)[O-])ccc3c2n1 | 6.1 | . | 0.67 | -3.1 | -1.2 | 4.9 | 12
COc1ccc(OC(C)C(=O)N2CC(C)OC(C)C2)cc1 (stereo not drawn) | -0.6 | 5% | 0.67 | 4.4 | -0.5 | 2.5 | 3
Cc1ccc(CNC(=O)CSCc2ccccc2F)cc1 | 1.5 | -8% | 0.67 | 5.8 | -0.9 | -0.2 | 1
Cn1cccc1C(C#N)c1cccc(F)c1C#N (stereo not drawn) | -0.6 | . | 0.66 | 3.7 | -0.2 | -4.0 | 1
CCOc1nc(NCCO)nc(Nc2cc(Cl)ccc2OC)n1 | 0.3 | -4% | 0.69 | -6.5 | -0.6 | -1.6 | 7
Cc1ccccc1CS(=O)(=O)Cc1ccc(C(=O)NCCCN2CC(C)CC(C)C2)o1 (stereo not drawn) | 5.0 | 28% | 0.73 | 2.4 | 0.8 | -2.2 | 0
O=C(CC12CC3CC(CC(C3)C1)C2)NCc1ccc(F)cc1 | -1.5 | . | 0.66 | -0.9 | 0.1 | 0.9 | 6
O=C(NCCc1cn2ccsc2n1)C1CCCCC1 | 1.0 | -1% | 0.76 | -1.4 | 1.2 | -1.1 | -8
CCCN(CC(=O)Nc1ccccc1C)C(=O)c1ccc(-c2ccc(C(C)=O)cc2)o1 | -198 | -6% | 0.69 | -1.4 | 0.0 | 2.9 | -6
Cc1ccc(S(=O)(=O)Nc2ccccc2CNc2ncc(Br)cc2Br)cc1 | 3.9 | 2% | 0.74 | -0.7 | 1.0 | 0.3 | -7
Cc1ccc(NS(=O)(=O)c2ccc3[nH]c(=O)[nH]c3c2)c(C)c1 | 2.4 | 8% | 0.72 | 1.2 | -0.1 | -2.3 | 12
O=C(CSc1ncccn1)NN=C1CCCCCCC1 | -2.6 | 4% | 0.68 | 1.3 | 0.2 | 0.9 | 10
CCC1NC(=S)NC(C)=C1C(=O)c1ccccc1 (stereo not drawn) | 7.8 | 16% | 0.7 | -0.1 | 0.2 | 8.6 | 0
CCc1[nH]nc2c1C1(CCOC1C)C(C#N)=C(N)O2 (stereo not drawn) | -0.2 | -3% | 0.7 | 0.0 | 0.3 | -2.1 | -2
COC(=O)C1=C(C)NC=C([N+](=O)[O-])C1c1ccc(OC)cc1 (stereo not drawn) | 6.9 | -3% | 0.7 | 3.8 | 0.0 | 1.6 | -1
Cc1cccc(NC(=O)c2ccc3nc(N4CCOCC4)sc3c2)c1C | 5.7 | . | 0.69 | 4.2 | 0.4 | 2.3 | 4
CC[C@]12c3[nH]c4ccccc4c3CCN1C(=O)C(CC(=O)NCc1ccco1)C[C@@H]2C(=O)N1CCN(C(=O)c2ccco2)CC1 (stereo partly drawn) | 0.3 | 0% | 0.7 | . | -0.5 | -0.8 | 3
Cc1ccc2sc(N(CCCN(C)C)C(=O)c3ccc(Br)s3)nc2c1C | -11 | . | 0.64 | 0.3 | 0.6 | 3.2 | 22
O=C(O)c1cccc2c1C(=O)N(c1ccc3c(c1)Cc1ccccc1-3)C2=O | 3.2 | -8% | 0.7 | . | . | -0.4 | -3
CCN(CC)CCN1C(=O)c2oc3ccccc3c(=O)c2C1c1ccc(F)cc1 (stereo not drawn) | 4.9 | -3%&14% | 0.67 | -0.7 | 0.9 | 1.0 | -2

As entered above.
CCN(CC)CCN1C(=O)c2oc3ccccc3c(=O)c2C1c1ccc(F)cc1 (stereo not drawn) – UCH37 inh = 4.9
O=C(NCCc1cn2ccsc2n1)C1CCCCC1 – LANA-H2A inh = -1.4
Cn1cccc1C(C#N)c1cccc(F)c1C#N (stereo not drawn) – LANA-H2A inh = 3.7

Source: PubChem
